Mtb growth = Mycobacterium tuberculosis H37Rv growth inhibition, cell based, confirmatory dose response (AID 1949); M. tuberculosis H37Rv growth inhibition; most inactive calls were filed without a number and no value below 0 was filed; inhibition, % at 10 µg/mL; hits with a dose series show IC50 in µg/mL; 100,000 compounds, 1.6% hits;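 active = confirmed in a dose series; inconclusive = about 50% or more but not retested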;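 also: bacteria grown 7 days with compound before Alamar blue readout; 0% = untreated bacteria and 100% = reference antibiotic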
* = called active by the depositor; i = inactive; ? = inconclusive. Not all compounds are listed (hit frequency here may not be typical).

SMILES	Mtb growth
CCOC(=O)C1=C(C)NC(=O)NC1c1ccc(OCC(=O)Nc2ccc(F)cc2)c(OCC)c1 (centres undefined)	i
COCC(=O)Nc1nc2ccc(C)cc2s1	i
CCOc1ccc(C(=O)N2CCN(c3ccc(Cl)cc3)CC2)cc1	i
Cn1c(=O)c2ncn(CC(=O)NCCC3=CCCCC3)c2n(C)c1=O	i
CCC(Oc1ccccc1)C(=O)Nc1sc2c(c1C(N)=O)CCC(C)C2 (centres undefined)	i
CCS(=O)(=O)N1CCN(Cc2ccccc2F)CC1	i
CCOC(=O)c1c(NC(=O)c2oc3ccc(C)cc3c2C)sc(C)c1C	i
CCC(C)c1ccccc1NC(=O)c1ccc(C)o1 (centres undefined)	6%
O=C(Nc1cccc(-c2nnc(-c3ccccc3)o2)c1)c1ccc(Br)o1	i
CC1=CC(C)(C)N(C(=O)CSc2nc3ccccc3o2)c2cc(C)ccc21	6%
CCOC(=O)c1ccc(NC(=S)N2CCC(C(N)=O)CC2)cc1	i
Cc1ccccc1CN1CCC(CN)CC1	i
c1ccc(-c2cnc(SCc3nc4ccccc4[nH]3)[nH]2)cc1	14%
C=CCNC(=O)c1ccccc1NC(=O)CN(c1cccc(F)c1)S(C)(=O)=O	i
COC(=O)N1c2ccccc2CCc2ccccc21	i
COC(=O)CN(c1cccc(Cl)c1C)S(C)(=O)=O	i
Cc1ccc(S(=O)(=O)N2CCN(c3c(C)cccc3C)CC2)cc1	i
CCOC(=O)c1sc2ncn(CC(=O)Nc3ccc(C)cc3)c(=O)c2c1C	3%
O=C(CCN1C(=O)c2cccc3c([N+](=O)[O-])ccc(c23)C1=O)Nc1nccs1	6%
O=C(Nc1ccc(Cl)cc1)Nc1cc(S(=O)(=O)N2CCCC2)ccc1Cl	i

Reprinted from the part before: 4 entries; new compounds follow.
SMILES	Mtb growth
Cc1ccc(S(=O)(=O)N2CCN(c3c(C)cccc3C)CC2)cc1	i
CCOC(=O)c1sc2ncn(CC(=O)Nc3ccc(C)cc3)c(=O)c2c1C	3%
O=C(CCN1C(=O)c2cccc3c([N+](=O)[O-])ccc(c23)C1=O)Nc1nccs1	6%
O=C(Nc1ccc(Cl)cc1)Nc1cc(S(=O)(=O)N2CCCC2)ccc1Cl	i
CCCCNC(=O)C(Sc1ccccc1)c1ccccc1 (centres undefined)	i
COc1ccc(-c2noc(COc3ccc(C(C)C)cc3)n2)cc1OC	1%
CC(=O)Nc1cccc(-c2nnc(SCC(=O)Nc3ccc(C(C)=O)cc3)n2C)c1	i
CCNC(=O)c1c(NC(=O)c2sc3cccc(Cl)c3c2Cl)sc2c1CCCC2	i
CC(=O)c1ccc(N2CCN(C(=O)c3cc(-c4cccs4)nc4ccccc34)CC2)cc1	i
O=C(c1sc2cc([N+](=O)[O-])ccc2c1Cl)N1CCN(C(=S)NCC2CCCO2)CC1 (centres undefined)	i
NC(N)=NC(N)=Nc1ccc(Cl)cc1Cl	i
COC(=O)C1=C(C)Nc2nnnn2C1c1ccc(Br)s1 (centres undefined)	i
COc1cccc(C(=O)Nc2ccc(N3CCCC3)cc2)c1	i
CCOc1ccc(NC(=O)CSc2nc(C)nc3sc4c(c23)CCCC4)cc1	?
COc1cc(OC)c(C2=NOC(C(=O)NCCCN3CCOCC3)C2)cc1Cl (centres undefined)	i
COc1cc(NC(=O)c2ccc(-c3ccc(Br)cc3)o2)ccc1NC(=O)C(C)C	i
Cc1ccc(-c2c3c(nc4sc(C(N)=O)c(N)c24)CCCC3)cc1	i
O=C(Nc1ccc(N2CCOCC2)c(Br)c1)c1ccc(F)cc1	6%
O=[N+]([O-])c1ccc(C2=NCCN2)cc1	i
Cc1ccc(C)c(S(=O)(=O)Nc2ccc(O)c3ccccc23)c1	4%
COc1ccc(C(=O)N2CCN(C(=O)c3ccco3)CC2)c(OC)c1	1%
Cc1ccc(S(=O)(=O)N(CC(=O)N2CCN(C)CC2)Cc2ccccc2F)cc1	i
CN(c1ccc(C(=O)N2CCOCC2)cc1[N+](=O)[O-])C1CCCCC1	i
COC(=O)Cc1c(C)c2ccc(OCC(=O)NC3CCCCC3)cc2oc1=O	8%

Next part (six carried over from the part before).
SMILES	Mtb growth
O=[N+]([O-])c1ccc(C2=NCCN2)cc1	i
Cc1ccc(C)c(S(=O)(=O)Nc2ccc(O)c3ccccc23)c1	4%
COc1ccc(C(=O)N2CCN(C(=O)c3ccco3)CC2)c(OC)c1	1%
Cc1ccc(S(=O)(=O)N(CC(=O)N2CCN(C)CC2)Cc2ccccc2F)cc1	i
CN(c1ccc(C(=O)N2CCOCC2)cc1[N+](=O)[O-])C1CCCCC1	i
COC(=O)Cc1c(C)c2ccc(OCC(=O)NC3CCCCC3)cc2oc1=O	8%
CCOC(=O)C(=O)Nc1ccc(C)cc1[N+](=O)[O-]	i
COc1ccc(S(=O)(=O)N(CC(=O)Nc2ccc(F)cc2F)c2cccc(Cl)c2)cc1	i
COc1ccc(C(=O)O)cc1NC(=S)NC(=O)COc1ccc(Br)cc1	i
COC(=O)c1cc(NC(=O)c2ccc(C)c(Cl)c2)cc(C(=O)OC)c1	i
COc1cc(CNc2cc(Cl)ccc2C)cc(I)c1OC	i
CCOc1ccc(CCNC(=S)Nc2ccccc2)cc1OCC	i
Cc1cc(C(=O)Oc2ccccc2C(=O)O)c(C)o1	i
C=CCn1c(SCC(=O)Nc2ccc3c(c2)OCCO3)nnc1-c1cc(Br)ccc1O	17%
O=C(O)CCC(=O)Nc1ccccc1C(=O)N1CCCCC1	i
O=C(NNC(=S)NCCc1ccccc1)c1cc(-c2cccs2)nc2ccccc12	i
CC1CCN(c2ccc(C#N)cc2F)CC1	1%
O=C1CC(N2CCN(c3cccc(Cl)c3)CC2)C(=O)N1CCc1ccccc1 (centres undefined)	i
CCC(=O)c1ccc(OCCSc2ncccn2)cc1	2%
CC(C)(C)C(=O)Nc1sc2c(c1C(=O)Nc1ccccn1)CCCC2	i
CC(C)c1ccc(NC(=O)N2c3ccccc3Sc3ccccc32)cc1	i
Cc1ccn(C(=O)c2cc3cc([N+](=O)[O-])ccc3oc2=O)n1	i
COc1ccc(NC(=O)CNS(=O)(=O)c2ccccc2)cc1Cl	i
O=C(Nc1ccc([N+](=O)[O-])cc1)N1CCN(C(=O)C2CCCO2)CC1 (centres undefined)	i
O=C(CCS(=O)(=O)Cc1ccccc1)n1nnc2ccccc21	i
COc1ccc(S(=O)(=O)N2CCN(c3ccccc3[N+](=O)[O-])CC2)cc1OC	i

More compounds:
SMILES	Mtb growth
CC(=O)c1ccc(NC(=O)NNC(=O)c2ccncc2)cc1	38%
CCOC(=O)C1CCCN(C(=O)c2ccccc2NC(C)=O)C1 (centres undefined)	i
O=C(O)CSCc1ccc(C(=O)O)o1	2%
CC(C)NC(=O)CN1C(=O)c2ccccc2C1=O	i
COc1ccc(CCNc2nccc(=O)[nH]2)cc1OC	i
O=C(CC12CC3CC(CC(C3)C1)C2)NC(=S)NCc1ccco1	i
COc1ccc(OCc2nc3c4c5c(sc4ncn3n2)CCCC5)cc1	i
O=C(COc1ccc2ccccc2c1)Nc1ccc(S(=O)(=O)N2CCCCC2)cc1	i
Cc1ccc(OS(=O)(=O)c2cc(Cl)ccc2Cl)c(C)c1	9%
O=C(O)c1cccc(NC(=S)NC(=O)c2ccccc2)c1	1%
COC(=O)CSc1nc(-c2ccc(F)cc2)cc(C(F)(F)F)n1	i
CC1NCCC2(O)CCCCC12 (centres undefined)	0%
Cc1cc(C)cc(NC(=O)C(=O)NCc2ccccc2Cl)c1	i
Cc1[nH]c2ccccc2c1C(=O)CSc1nnc(C)n1C1CCCCC1	i
Cc1cc(C)cc(OCC(=O)NNC(=O)CCC(=O)NCc2ccccc2)c1	i
N#C/C(=C/c1ccc2c(c1)OCO2)c1cccc(F)c1	i
CCCOC(=O)c1ccc(NC(=S)NC(=O)c2ccc(Cl)cc2)cc1	0.8µg/mL*
COc1ccc(NC(=O)C2CCN(C(=O)c3ccc(F)cc3)CC2)c(OC)c1	i
Cc1ccc(-c2cc(C(F)F)n3ncc(C(=O)Nc4cc(C)ccc4F)c3n2)cc1	i
CCCc1cc(=O)oc2cc(OC(=O)c3ccc(OC)cc3)ccc12	i

Exported field by field: entries from further up
CCCOC(=O)c1ccc(NC(=S)NC(=O)c2ccc(Cl)cc2)cc1
  Mtb growth: 0.8µg/mL*
CC1NCCC2(O)CCCCC12 (centres undefined)
  Mtb growth: 0%

Going on with the list.
SMILES	Mtb growth
COc1ccc(CCN(C(C)=O)C2CC(=O)N(c3ccccc3)C2=O)cc1OC (centres undefined)	i
Cc1cccc2c(N=NC(=O)c3cccc(O)c3)c(O)[nH]c12	i
CCCOc1c(Cl)cc(C(=O)Nc2ccc(S(N)(=O)=O)cc2)cc1Cl	i
COc1ccc(NC(=O)CCOc2ccc(C)cc2)c(OC)c1	1%
COc1cccc(OCC(O)CN2CCCC2)c1 (centres undefined)	i
FC(F)(F)c1ccc(N2CCN(c3ccccc3)CC2)nc1	i
COc1ccc(Cl)cc1NC(=S)NNC(=O)C1c2ccccc2Oc2ccccc21	i
COc1ccc(C(C)NC(=O)c2cccc(I)c2)cc1OC (centres undefined)	0%
CCCCc1ccc(NC(=S)NCc2cccnc2)cc1	i
Cc1ccc(C(=O)NC(=S)NNC(=O)c2ccc(NC(=O)c3ccccc3)cc2)cc1	i
CCCCOc1ccc2c(CCC)cc(=O)oc2c1C	i
COc1ccc(S(=O)(=O)N2CCN(c3ccc([N+](=O)[O-])cc3C)CC2)cc1OC	i
O=C(Nc1ccccc1Br)C(Cc1ccccc1)N1C(=O)c2ccccc2C1=O (centres undefined)	1%
COc1ccc(S(=O)(=O)N(CC(=O)Nc2ccc3c(c2)OCO3)c2ccccc2OC)cc1	i
COCc1nnc(NC(=O)c2cccc(NC(=O)C(C)C)c2)s1	i
Cn1c(SCc2cccc(Cl)c2)nnc1-c1ccc(NC(=O)COc2ccccc2)cc1	i
CC(C)CC(=O)Nc1ccc2oc(-c3cccc(Br)c3)nc2c1	1%
O=C1CC(C(=O)Nc2ccc([N+](=O)[O-])cc2)C2(CCCCC2)O1 (centres undefined)	i
Cc1ccccc1-c1nnc(SCc2ccc([N+](=O)[O-])cc2)o1	i
COc1ccc(CCN2C(=O)NC(NC(=O)c3ccccc3)(C(F)(F)F)C2=O)cc1OC (centres undefined)	i

(cont.)
SMILES	Mtb growth
O=[N+]([O-])c1ccc(N2CCN(CCO)CC2)c(C(F)(F)F)c1	i
O=C(C1CCCN(C2CC(=O)N(c3ccc(F)cc3)C2=O)C1)N1CCCC1 (centres undefined)	i
COc1cc(C(=O)Nc2nnc(C(F)(F)F)s2)cc(OC)c1OC	7%
Cc1sc2nc(SCC(=O)NCC3CCCO3)n(-c3ccccc3)c(=O)c2c1C (centres undefined)	i
CCN(CC)C(=O)c1sc(NC(=S)Nc2cc3oc4ccccc4c3cc2OC)c(C(=O)OC)c1C	i
O=C(Cc1ccc(Cl)cc1)Nc1cccc(NC(=O)c2ccc(Cl)cc2Cl)c1	21%
CCOc1ccc(CNCC2CCCO2)cc1 (centres undefined)	i
O=C(COc1ccccc1)Nc1nc(-c2ccc(Cl)cc2Cl)cs1	i
COc1ccc(Cl)cc1N(CC(=O)NC1CCCCC1)S(C)(=O)=O	3%
CCOc1cc(NC(=O)C2CCCCC2)c(OCC)cc1NC(=O)c1ccccc1	i
O=C(NC1(C(F)(F)F)NC(=O)N(C2CCCCC2)C1=O)c1ccc(Cl)cc1 (centres undefined)	i
CCOC(=O)C(CC)n1cnc2scc(-c3ccc(C)c(C)c3)c2c1=O (centres undefined)	26%
COc1cccc(C2CC(=O)Nc3ccc4ccccc4c32)c1OC (centres undefined)	1%
O=S(=O)(Cc1ccccc1)N1CCC(Cc2ccccc2)CC1	i
CC(=O)Nc1nonc1-c1nc2ccccc2n1Cc1cccc2ccccc12	i
C=CCN1C(=O)C(O)(CC(=O)c2ccc3c(c2)CCCC3)c2ccccc21 (centres undefined)	i
O=C(Cc1ccccc1)Nc1cccc(Oc2ccc3c(c2)C(=O)NC3=O)c1	i
CC1CC(C)CN(CCCOc2ccccc2[N+](=O)[O-])C1 (centres undefined)	i
O=C(NCCc1ccccc1)c1cccc(C(F)(F)F)c1	i
O=S(=O)(Nc1cccnc1)c1ccccc1F	i

Later entries.
SMILES	Mtb growth
Cc1oc(CSCC2CCCO2)cc1C(=O)O (centres undefined)	i
Cc1ccc(-c2csc3ncn4nnnc4c23)cc1	i
Cc1nn(C)c(C)c1NC(=S)Nc1cccc(C(F)(F)F)c1	i
Cn1c(C(=O)c2ccccc2[N+](=O)[O-])nc2ccccc21	i
Cn1c(CSCc2ccccc2)nnc1SCC(=O)Nc1ccc([N+](=O)[O-])cc1	1%
COc1ccc2oc(=O)c(C(=O)N3CCN(S(=O)(=O)c4ccc(C)cc4)CC3)cc2c1	i
CCOC(=O)c1c(NC(=O)c2ccn(CC)n2)sc2c1CCCC2	i
O=c1oc(-c2ccc(-c3ccccc3)cc2)nc2scc(-c3ccccc3)c12	i
Cc1onc(-c2ccccc2)c1C(=O)Nc1ccc(Nc2ccccc2)cc1	i
CCCCOc1ccc(C(=O)Nc2ccc(CN3CCOCC3)cc2)cc1	i
Cc1c(NC(=O)CN2C(=O)c3cccc4cccc2c34)c(=O)n(-c2ccccc2)n1C	i
CCOC(=O)c1cnc2ccc(C(=O)OC)cc2c1Nc1cccc([N+](=O)[O-])c1	i
CN(Cc1ccccc1)c1nc(-c2ccc(Br)cc2)cs1	42%
